# Compound activity from PubChem.
# MbtI inh: inhibitors of Mycobacterium tuberculosis siderophore enzyme MbtI; P9WFX0; purified MbtI enzyme, fluorescence intensity read-out; inhibition, %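 (about 17 µg/mL by stock and volumes)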; 100,000 tested, 0.89% active;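 active = above 50% in both replicates, above 80% if mildly self-fluorescent; inactive = the rest, strongly fluorescent compounds included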;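 also: 0% = mean of negative and 100% = mean of positive controls; one replicate is shown; some compounds called inactive have numbers as strong as hits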
# MenB inh: inhibitors of Mycobacterium tuberculosis MenB enzyme; P9WNP5; MenB enzyme assay, absorbance read-out; some hits fall short of the stated cut; inhibition, %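 (about 12 µg/mL by stock and volumes)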; 100,000 tested, 0.43% active; AID 540299;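 active = mean of two replicates above 30%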;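 also: 0% = no compound and 100% = wells with inactive enzyme; the first replicate is given; strong numbers were not always called active; inactives centre near -10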
# Target sequence (P9WNP5 whole entry, looked up): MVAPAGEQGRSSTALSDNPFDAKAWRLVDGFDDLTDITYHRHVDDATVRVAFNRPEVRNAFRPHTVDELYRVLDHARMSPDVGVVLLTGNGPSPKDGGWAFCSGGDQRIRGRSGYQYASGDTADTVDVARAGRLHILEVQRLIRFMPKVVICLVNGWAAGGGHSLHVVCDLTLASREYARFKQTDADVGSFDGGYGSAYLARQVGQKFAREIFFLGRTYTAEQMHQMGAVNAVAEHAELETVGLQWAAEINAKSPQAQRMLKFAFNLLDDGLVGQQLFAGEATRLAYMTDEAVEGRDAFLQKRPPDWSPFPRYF
# PV pol inh: poliovirus RNA polymerase inhibition; P03300; poliovirus polymerase elongation, fluorescence polarization; active compounds read low; % elongation, % (compound at 16.7 µg/mL); 150,000 tested, 0.66% active; in the data active = % elongation below about 90%; also: some results filed as inactive read as strong as hits
# Target sequence (P03300 1749-2209 limits assumed): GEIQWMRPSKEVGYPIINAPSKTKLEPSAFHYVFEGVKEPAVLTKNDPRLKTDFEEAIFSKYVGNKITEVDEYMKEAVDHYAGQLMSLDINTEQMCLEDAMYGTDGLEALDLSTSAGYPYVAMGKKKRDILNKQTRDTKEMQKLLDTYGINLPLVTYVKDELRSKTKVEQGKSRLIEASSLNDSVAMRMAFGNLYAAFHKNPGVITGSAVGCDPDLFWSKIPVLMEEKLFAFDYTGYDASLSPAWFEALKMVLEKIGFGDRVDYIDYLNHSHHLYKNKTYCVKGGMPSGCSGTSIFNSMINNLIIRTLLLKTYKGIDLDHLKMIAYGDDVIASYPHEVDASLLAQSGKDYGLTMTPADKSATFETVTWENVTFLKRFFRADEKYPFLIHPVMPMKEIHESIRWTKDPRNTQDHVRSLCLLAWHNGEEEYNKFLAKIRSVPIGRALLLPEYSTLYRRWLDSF
# PV pol inh intensity: second read-out of PV pol inh, no call of its own (marks repeat the call); % elongation; measured here: total intensity read-out; formula for this scale not given here;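 total fluorescence in place of polarization; lower means less elongation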
# Numbers without * were called inactive; . = not tested or not shown.
# Each structure is followed by: MbtI inh	MenB inh	PV pol inh	PV pol inh intensity
- CCCn1c(NC(=O)Cc2coc3ccc4ccccc4c23)nc2ccccc21
 : -55	-62	112	105
- Nc1nc(Sc2nc3cc(Cl)ccc3s2)n[nH]1
 : 15	-15	104	105
- O=C(CSc1nncs1)NCc1cccs1
 : -8	-1	109	111
- CCS(=O)(=O)Nc1ccc(C(=O)NC2CC2)cc1
 : -35	7	100	102
- CC(C)(C)c1cc(C(C)(C)C)cc(S(=O)(=O)CCc2ccccn2)c1
 : 7	-17	100	101
- CSc1nc2nc(C)cc(C)n2n1
 : 20	-8	100	104
- NC(=O)CC1C(=O)N(c2ccc(F)cc2)C(=O)N1NC(=O)CCc1ccccc1 (configuration not stated)
 : -17	4	101	101
- Cc1nc(SCC(=O)C(C)(C)C)[nH]c(=O)c1Cc1c(Cl)cccc1Cl
 : -12	-10	104	113
- COc1ccccc1NC(=O)Cn1cnc2c(cnn2C(C)(C)C)c1=O
 : 7	10	103	104
- N#C/C(=C1/CCCCCN1)c1nc2ccccc2s1
 : 2	.	104	107
- O=C(Nc1cccc(OC(=O)c2ccco2)c1)c1ccccc1
 : 4	-45	101	101
- O=C(Nc1ccc2c(c1)OCCO2)c1cccs1
 : 1	-6	106	106
- COc1cc(C#N)ccc1OCC(=O)NC(C)c1ccc2c(c1)OCO2 (configuration not stated)
 : 15	9	101	97
- CCN1CCCC1CNCc1cccc(OC)c1OC (configuration not stated)
 : 1	38*	103	104
- Cc1ccc(S(=O)(=O)NC(=O)N2CCCN(c3ccc(C(F)(F)F)cn3)CC2)cc1
 : -15	-16	102	110
- CCOC(=O)c1ccc(N2C(=O)c3n[nH]c(C)c3C2c2ccc(Cl)cc2Cl)cc1 (configuration not stated)
 : 0	12	101	102
- CCN(CC)S(=O)(=O)c1ccc(N=Nc2c(C)nn(-c3ccccc3)c2N)cc1
 : 3	-105	102	101
- CCc1cccc(NC(=O)C(Cc2ccccc2)NS(=O)(=O)c2ccc3c(c2)CCC(=O)N3)c1 (configuration not stated)
 : 3	-19	102	99
- Cc1ccc(CNC(=O)c2ccc3c(=O)n4c(nc3c2)CCCCC4)cc1
 : 0	2	100	101
- COc1ccc2c(c1)CCN(Cc1cc3sccc3n1CC1CCCCC1)C2
 : 1	4	104	107
- CCC(=O)Nc1ccccc1C(=O)OCC(=O)Nc1ccc(S(N)(=O)=O)cc1
 : 156	-5	100	101
- CCN(CC)S(=O)(=O)c1cccc(S(=O)(=O)c2ccc(C)c(S(=O)(=O)N(CC)CC)c2)c1
 : 1	-11	102	103
- Cc1ccccc1NC(=O)Cn1cc2c(n1)CCCCC2
 : -8	-26	101	104
- CCc1ccccc1NC(=O)c1cc2c(=O)n3ccccc3nc2n1C
 : -30	0	87	119
- Cc1cc(-c2ccc(Cl)cc2)nc2c1c(C)nn2CCO
 : 106	2	98	101
- CCCNc1ncnc2onc(-c3ccc(F)cc3)c12
 : -13	-8	100	103
- CC1CC(C)CN(Cc2csc3c2CCCC3)C1 (configuration not stated)
 : 0	-23	105	102
- Cc1[nH]c2ccccc2c1Cc1nc2ccccc2[nH]1
 : -197	2	104	101
- Cc1nc2c(C(=O)NCC3CCCO3)cnn2c(C)c1Cc1ccccc1Cl (configuration not stated)
 : 43	-22	105	109
- CC1(C)CC(=O)C=C(NCc2ccc(C(=O)O)cc2)C1
 : .	-5	100	108

# The list continues.
# Each structure is followed by: MbtI inh	MenB inh	PV pol inh	PV pol inh intensity
- CCOC(=O)C1CCN(C(=O)CCS(=O)(=O)c2ccc3c(c2)CC(C)N3C(=O)CC)CC1 (configuration not stated)
 : -6	-15	101	102
- CS(=O)(=O)c1ccc(C(=O)O)c(O)c1C(=O)O
 : .	-12	97	96
- COC(=O)C1=C(C)NC(=O)/C1=C\c1ccc(Cl)cc1
 : 7	-81	99	100
- COc1ccc(NC(=O)CSc2nc(O)cc(=O)[nH]2)cc1
 : -4	-125	103	104
- COc1cc(C(=O)Nc2ccc3c(c2)ncn3C(C)(C)C)cc(OC)c1OC
 : 4	-7	101	104
- O=C(c1cc2ccccc2nc1-c1ccco1)C(F)(F)F
 : 115	1	96	106
- Nc1ccc2c(c1)CN(Cc1ccccc1)C2
 : 3	2	100	100
- CCC(C)(C)NC(=O)C1CCC(CNS(=O)(=O)c2cccc3nsnc23)CC1 (configuration not stated)
 : -1	-12	103	102
- O=C1c2ccccc2C(=O)C1(Nc1ccccc1)c1ccccc1
 : .	2	105	107
- Cc1ccc2occ(CN3CCSCC3)c(=O)c2c1
 : 10	-18	100	104
- CCc1ccc(OCC(=O)N(CC)CC)cc1
 : -7	.	105	107
- NNC(=O)c1nn(-c2ccc(Cl)cc2)cc1O
 : -105	1	102	102
- CCOc1ccc(C(=O)CSc2nnc3c(n2)CCCC3)cc1NC(=O)CC
 : 5	-38	103	105
- O=C(COC(=O)c1cccc(C(F)(F)F)c1)NC1CCS(=O)(=O)C1 (configuration not stated)
 : 2	9	102	102
- Cc1[nH]cnc1C(=O)N/N=C/c1ccncc1
 : 14	-13	103	107
- COc1ccc(S(=O)(=O)N2Cc3ccccc3CC2C(=O)NC(C)(C)C)cc1OC (configuration not stated)
 : -9	-9	100	101
- CC(NC(=O)CN1C2CCC1CC(=O)NC2)c1ccccc1 (configuration not stated)
 : 0	29*	100	100
- CCC1C(=O)C(C)(C)C(=O)OC1c1cccc(Br)c1 (configuration not stated)
 : .	-23	104	103
- CC(CC(=O)NCC(c1ccc(F)cc1)N1CCOCC1)n1ccnc1 (configuration not stated)
 : -1	0	98	104
- Cc1cccc(NC(=O)CSc2nc3c(oc4ccccc43)c(=O)n2C2CCCC2)c1C
 : -10	-13	104	96
- O=C1CCCC2=C1C(c1cccs1)CC(=O)N2c1ccccc1 (configuration not stated)
 : .	-14	110	106
- O=C(c1ccc2c(Cl)c3c(nc2c1)CCC3)N1CCN(C(=O)c2ccco2)CC1
 : -3	0	102	103
- CN(Cc1ccccc1)S(=O)(=O)c1ccccc1
 : .	5	104	108
- CCOC(=O)c1c(C)nc2c(c1-c1ccc(OC)c(OC)c1)C(=O)c1ccccc1-2
 : .	-6	107	110
- O=C(c1ccc2c(=O)[nH][nH]c(=O)c2c1)N1CCN(c2cccc(C(F)(F)F)c2)CC1
 : -4	-35	103	103
- Cc1ccc2nc(NC(=O)C(F)(F)F)sc2c1
 : .	-15	101	104
- CN(C)C(CNS(=O)(=O)c1ccc(Cl)cc1)c1ccccc1 (configuration not stated)
 : -5	6	99	103
- CCc1nnc(SCC(=O)Nc2cccc(C)c2)nc1CC
 : -5	15	99	104
- CCCS(=O)(=O)N1CCN(S(=O)(=O)c2ccccc2)CC1
 : -15	-48	105	104
- CCn1c(SCC(N)=O)nnc1C(C)Oc1ccc(F)cc1 (configuration not stated)
 : -10	9	101	102

# Continued.
# Each structure is followed by: MbtI inh	MenB inh	PV pol inh	PV pol inh intensity
- Cc1nc(Oc2ccc(NC(=O)c3ccccc3)cc2)c2c3c(sc2n1)CCC3
 : 2	-18	100	99
- Cc1ccccc1Nc1nc(N)nc(COc2ccc3c(C)cc(=O)oc3c2)n1
 : 101	-22	102	94
- COc1ccccc1Nc1nc(N)nc(CN2CCc3ccccc3C2)n1
 : -1	-4	102	106
- Nc1ccc(C2(c3ccc(N)cc3)CCCCC2)cc1
 : -17	.	103	107
- CC1Cc2ccccc2N1C(=O)CSc1nc(-c2ccco2)cc(C(F)(F)F)n1 (configuration not stated)
 : -5	1	102	101
- O=C(Nc1ccc(-c2nc3cc(Cl)cc(Cl)c3o2)cc1)c1ccc2c(c1)OCCO2
 : -42	-15	99	104
- O=C(CSc1ccccn1)c1ccc(OCc2ccc(F)cc2)cc1
 : 21	-14	103	108
- Cc1nnc(-c2ccccc2)c(=O)n1/N=C/c1cccs1
 : .	-11	107	97
- CN(Cn1[nH]c(-c2cccs2)nc1=S)C1CCCCC1
 : 87	14	101	107
- Oc1ccc2ccccc2c1CN1CCN(Cc2cccs2)CC1
 : -9	-5	98	106
- Cc1ccnc2c1ccc1ccccc12
 : 36	-7	100	102
- Cc1oc2c(c1C(=O)Nc1ccc(C(=O)O)cc1)CCCC2
 : -4	-14	104	102
- O=C(c1ccc(F)cc1)N1CCCCC(Sc2nnc(-c3ccc4c(c3)OCO4)o2)C1=O (configuration not stated)
 : -8	-12	103	110
- O=C(COc1cc(Cl)ccc1Cl)NCc1ccccc1
 : .	-10	105	103
- N#Cc1ccc(COC(=O)Cc2ccccc2)cc1
 : -6	.	101	101
- O=C(Cn1cnc2c(nnn2-c2ccccc2)c1=O)NC1CCCC1
 : 1	-19	99	102
- O=C1CCC(=O)N1c1ccc(Cl)cc1
 : 18	-4	103	102
- CCN(CC)S(=O)(=O)c1ccc2nc(SC)sc2c1
 : -1	-3	101	102
- CC(=O)Nc1ccccc1OCC(=O)c1cc(C)n(Cc2cccs2)c1C
 : 3	-25	103	105
- CCCCNC(=O)n1nccc1-c1sc(-c2cccs2)nc1C
 : 103	-10	103	96
- COC(=O)c1ccc(/C=C2\SC(N)=NC2=O)cc1
 : .	-4	105	107
- Cc1cc(N)n2nc(-c3ccccc3)cc2n1
 : .	-14	105	109
- CC(=O)Oc1ccc2nc(CN3C(=O)c4ccccc4C3=O)oc(=O)c2c1
 : .	-12	98	103
- Cc1cc(Br)ccc1SCC(=O)OCC(=O)N1CCCC(C)C1 (configuration not stated)
 : -13	.	101	105
- COc1ccc(C2SCC(C(=O)NCc3ccc(F)cc3)N2C(C)=O)cc1 (configuration not stated)
 : 2	-4	103	98
- CC(C)(CNC(=O)COc1ccccc1Cc1ccccc1)N1CCOCC1
 : -3	-23	101	107
- CCCCn1c(=O)[nH]c(=O)c2c1nc(CNc1ccc(Cl)cc1)n2CCC(C)C
 : 16	-3	105	105
- COC(=O)C12CCC(C)(c3nc4ccccc4nc31)C2(C)C (configuration not stated)
 : -2	-1	100	103
- O=C(CN1C(=O)C2CC=CCC2C1=O)Nc1ccc(-c2nnc3n2CCCCC3)cc1 (configuration not stated)
 : -10	1	101	107
- CCN1/C(=C2/SC(=S)N(CC(=O)O)C2=O)C=Cc2cc(OC)ccc21
 : 1	-124	99	97

# (list continues)
# Each structure is followed by: MbtI inh	MenB inh	PV pol inh	PV pol inh intensity
- O=C(NCc1ccccc1CN1CCOCC1)C1CC(=O)N(c2cccc3ccccc23)C1 (configuration not stated)
 : 1	1	99	106
- COC(=O)c1noc(C)c1C(=O)/C=C/N(C)C
 : 12	-18	122	161
- COc1ccc(OC(=O)c2ccc3snnc3c2)cc1
 : -12	-5	103	104
- COc1ccc(C2=NN(CC(=O)NC3CCCCC3C)C(=O)CC2)cc1 (configuration not stated)
 : 2	-6	101	103
- Cc1ccc(S(=O)(=O)N(C)C)cc1
 : -4	.	101	98
- C=CCSc1nnc2c(n1)OC(c1ccccc1OCC(=O)O)Nc1ccccc1-2 (configuration not stated)
 : 11	-17	102	106
- CCOP(=O)(c1ccccc1)c1ccccc1
 : -6	-44	101	103
- CC1(C)CC(=O)C(C=NCCN2CCNC2=O)=C(O)C1
 : 18	-2	99	102
- Cn1c(=NC(=O)C2CCN(S(=O)(=O)c3cccs3)CC2)sc2ccccc21
 : -7	-6	.	.
- Cc1cccc(OCC(=O)OC2CCOC2=O)c1 (configuration not stated)
 : -10	-1	101	106
- CCN1CCN(C(=O)C2=COCCO2)CC1
 : -4	.	100	102
- C=CCNc1ccc(C(F)(F)F)cn1
 : 158	-45	101	105
- CCCC(=O)N1CCN(c2ccc(NC(=O)c3ccco3)cc2Cl)CC1
 : 8	36*	100	100
- COc1ccccc1NC(=O)CSc1ccccc1
 : 19	-20	102	101
- CCN(CC)c1nc(-c2ccncc2)nc2ccccc12
 : .	-16	101	110
- CC(C)N(CC(N)=O)C(=O)Cc1ccc(Cl)cc1
 : 0	-9	100	102
- COC(=O)c1cn(Cc2ccccc2C#N)c2ccccc12
 : 2	20	100	112
- C=C(C)CSc1nnc(SCc2cccc3ccccc23)s1
 : .	-31	98	103
- CC(=O)Nc1cccc(OCc2cc(=O)n3nc(C4CC4)sc3n2)c1
 : 0	-9	102	103
- CN(C)C(CNC(=O)c1oc2ccccc2c1CSc1ncn[nH]1)c1ccco1 (configuration not stated)
 : 6	8	.	.
- CCCC(=O)Nc1ccc2oc(-c3ccccc3Br)nc2c1
 : 64	3	101	104
- Cc1cc(C(=O)OCc2csc(-c3ccccc3)n2)c(C)o1
 : -10	-22	99	97
- Cc1ccc(NC2=NC(C)(C)CS2)cc1
 : -4	.	98	99
- CCCC12CCC(c3ccc(C#N)cc3)(CC1)CC2
 : 2	7	105	101
- Nc1ccc(C(=O)OCc2nc3cc4ccccc4cc3[nH]2)cc1
 : 7	-21	102	107
- O=C1CC(Sc2nnc3ccccn23)C(=O)N1CCc1ccccc1 (configuration not stated)
 : -25	-73	96	96
- CCOC(=O)c1cc(C(=O)/C=C/N(C)C)on1
 : 2	-63	110	116
- COc1cccc(C(=O)NC2CCCC2)c1
 : -23	-26	102	103
- Cc1cccc(-n2c(Cn3ccc(C)n3)n[nH]c2=S)c1
 : 2	-10	.	.

# Single records, from the list above.
# CCN(CC)c1nc(-c2ccncc2)nc2ccccc12 in the list: MbtI inh: .; MenB inh: -16; PV pol inh: 101; PV pol inh intensity: 110
# CC1(C)CC(=O)C(C=NCCN2CCNC2=O)=C(O)C1 in the list: MbtI inh: 18; MenB inh: -2; PV pol inh: 99; PV pol inh intensity: 102
# CCOP(=O)(c1ccccc1)c1ccccc1 in the list: MbtI inh: -6; MenB inh: -44; PV pol inh: 101; PV pol inh intensity: 103
